RVFV N-RNA inh = blocks Rift Valley Fever Virus nucleoprotein binding to RNA; RVFV N-RNA binding, fluorescence polarization; active compounds read low; actives 0.1% (n = 20,000); % bound, % (concentration not given with the values); AID 651828;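 active means between 0 and 58% in either replicate with normal brightness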;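 further: 100 nL library stock added to about 12 µL; 100% = protein and probe without compound and 0% = probe alone; numbers are from one replicate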
Target sequence (P21700 whole entry, looked up): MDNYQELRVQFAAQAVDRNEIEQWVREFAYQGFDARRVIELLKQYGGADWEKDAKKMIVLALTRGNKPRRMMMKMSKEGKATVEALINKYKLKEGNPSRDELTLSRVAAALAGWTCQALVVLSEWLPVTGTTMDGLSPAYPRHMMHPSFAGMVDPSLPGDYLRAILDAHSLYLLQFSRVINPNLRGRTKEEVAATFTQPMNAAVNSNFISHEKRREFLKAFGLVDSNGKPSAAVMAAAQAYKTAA
Numbers without * were called inactive; & = joins results of further samples. These rows are one share of the data; count on the stated rates, not on these rows.

Structure | RVFV N-RNA inh
CC(C(=O)Nc1ccc(F)c(F)c1F)N1C(=O)c2ccccc2S1(=O)=O (configuration not stated) | 88.6
COC(=O)C1=C(C)N=c2s/c(=C/c3ccco3)c(=O)n2C1c1ccc(OC)cc1 (configuration not stated) | 98.0
O=C(Nc1nnc(-c2ccc3c(c2)CCCC3)o1)c1ccc(NS(=O)(=O)c2ccc(F)cc2)cc1 | 95.1
Cn1cc(NC(=O)NCCSc2c[nH]c3ccccc23)c2ccccc21 | 95.9
Cc1noc(C)c1C(=O)N(C)Cc1ccccc1 | 98.0
CC(C)(C)c1nc2c3cc[nH]c(=O)c3c3cc(F)ccc3c2[nH]1 | 102.0
COc1ccc(C(=O)Nc2sc3c(c2C(N)=O)CCCC3)cc1OC | 101.2
CSC(=NS(=O)(=O)c1ccc(C)cc1)SC | 91.2
FC(F)(F)c1cnc(NN=C2CCSCC2)c(Cl)c1 | 92.8
Cc1ccc(CSCC(=O)Nc2ccc3c(c2)OCO3)cc1 | 98.1

4 successive records already listed, quoted:
Structure | RVFV N-RNA inh
O=C(Nc1nnc(-c2ccc3c(c2)CCCC3)o1)c1ccc(NS(=O)(=O)c2ccc(F)cc2)cc1 | 95.1
Cn1cc(NC(=O)NCCSc2c[nH]c3ccccc23)c2ccccc21 | 95.9
Cc1noc(C)c1C(=O)N(C)Cc1ccccc1 | 98.0
CC(C)(C)c1nc2c3cc[nH]c(=O)c3c3cc(F)ccc3c2[nH]1 | 102.0

The list goes on:
Structure | RVFV N-RNA inh
COc1nc2c(c(-c3ccco3)c1C#N)Cc1ccccc1-2 | 89.9
CC1CCCCC1NC(=O)c1cc2cccnc2n(Cc2ccccc2)c1=O (configuration not stated) | 97.5
CCC1SC(CC)C(=O)N(CC(=O)Nc2cccc(C)c2)C1=O (configuration not stated) | 93.5
CC(C)C(NC(=O)C12CC3CC(CC(C3)C1)C2)C(=O)NC1=NCCS1 (configuration not stated) | 97.6
CCOc1cc(/C=C(/C#N)c2cccc(Br)c2)ccc1OCc1ccc(C(=O)O)o1 | 93.8
O=[N+]([O-])c1ccc(-c2nc(-c3ccc(F)cc3)c(-c3ccncc3)[nH]2)cc1 | 98.7&112.5
CCOC(=O)[C@H](CCc1ccccc1)N[C@@H](C)C(=O)N1[C@H](C(=O)O)C[C@@H]2CCC[C@@H]21 | 95.6&93.6&94.7
O=C1Nc2ccccc2/C1=C\c1c(Cl)[nH]c2ccccc12 | 103.1
CCOC(=O)C1=C(c2ccccc2)N(C)C(=O)NC1c1ccccc1F (configuration not stated) | 93.9
CCN1C(=O)C(Cc2c[nH]c3ccccc23)NC1=S (configuration not stated) | 101.9
COc1ccccc1-n1nnnc1SCC(=O)NC1CCCCC1 | 89.1
COc1ccccc1N1CCN(CCCOc2cc(C)ccc2C(C)C)CC1 | 102.8
O=C(CON1C(=O)CCC1=O)Nc1cccc2ccccc12 | 97.5
COC(=O)C1=CCCN(C)C1 | 94.5
O=C(Nc1cc(=O)[nH]c(=O)[nH]1)c1cccc(C(F)(F)F)c1 | 92.4
CCOc1ccc(C(=O)Nc2nc3cc4c(cc3s2)OCO4)cc1 | 95.7
CCCC(=O)N(Cc1ccccc1)C(C)C | 97.1
C=Cc1cccc(NC(=O)c2cccs2)c1 | 97.3
CN(C)C(=O)COc1cccc2ccccc12 | 106.1
CC(C)c1ccc2oc3nc(N)c(C#N)cc3c(=O)c2c1 | 93.6
CN1CCC(=C2c3ccccc3C=Cc3ccccc32)CC1 | 101.1&106.6&97.2
CCN1C(=O)c2ccc(C(=O)Nc3cc(C)on3)cc2C1=O | 86.8
N#CC(C(=O)CN1CCN(Cc2ccccc2)CC1)c1ccccc1 (configuration not stated) | 95.8
CN(C)C(=O)Oc1cc(OC(=O)N(C)C)cc(C(O)CNC(C)(C)C)c1 (configuration not stated) | 94.9
CC(=O)O/N=C/c1[nH]ncc1Br | 97.1
CC[N+](CC)(CC)CC(=O)Nc1c(C)cccc1C | 99.0
COc1ccc(OC)c(/C=N/N=C2\SCC(=O)N2Cc2ccco2)c1 | 92.7
CCC1CCCCN1C(=O)c1cccs1 (configuration not stated) | 93.7
COc1ccc2nc(SCC(=O)c3ccc(O)c(O)c3)[nH]c2c1 | 97.0
C#CCSc1nnc(-c2ccccc2)o1 | 94.3
Cc1cc(C)c2nc(C(F)(F)F)nc(N3CC(C)OC(C)C3)c2c1 (configuration not stated) | 96.9
O=C(CCN1C(=O)C2C3C=CC(C3)C2C1=O)Oc1cccc2cccnc12 (configuration not stated) | 95.3
CC(=O)Nc1cc(C(N)=O)cc(C(N)=O)c1 | 86.6
CC(C)(C)c1cc2nc(C(F)(F)F)cc(N3CCN(C(=O)c4ccccc4)CC3)n2n1 | 97.5
O=C(Nc1ccc(OCc2ccccc2)cc1)Nc1cccnc1 | 91.7
CC(C)c1nc2ccccc2n1C(C)c1ccccc1 (configuration not stated) | 98.0
O=C(NC1(C(F)(F)F)NC(=O)N(c2ccc(F)cc2)C1=O)c1ccco1 (configuration not stated) | 97.7
Cn1c(SCc2cc(=O)[nH]c(=O)[nH]2)nnc1C(F)(F)F | 90.3
CCCNC(=O)NCc1n[nH]c(=O)c2ccccc12 | 97.6
c1ccc(-n2ncc3c(SCCC4OCCO4)ncnc32)cc1 | 105.9
CC(=O)NC(C(=O)c1ccccc1)N1CCCCC1 (configuration not stated) | 93.2
Cc1ccn(S(=O)(=O)c2ccccc2)n1 | 91.5
CN1CCN(NC(=O)c2ccccc2CCc2ccccc2)CC1 | 98.0
Cc1ccccc1C(=O)Nc1nnc(C2=COCCO2)o1 | 94.4
O=C1/C(=C\c2ccco2)SC(=S)N1CCC(=O)N1CCCc2ccccc21 | 95.1
CC1=CC(=O)NC2C=CC=CC12 (configuration not stated) | 99.7
CC1CN(c2ncnc3scc(-c4ccccc4)c23)CC(C)O1 (configuration not stated) | 93.0
CC(C)(C)c1o[nH]c(=O)c1CC(N)C(=O)O (configuration not stated) | 98.9
O=C(C1COc2ccccc2O1)N1CCN(c2ccccc2)CC1 (configuration not stated) | 96.6
CCCCn1c(N)c(C(=O)NCCC)c2nc3ccccc3nc21 | 97.3

Later entries
Structure | RVFV N-RNA inh
CC(C)CCSc1nc(-c2cccs2)ccc1C#N | 87.4
COC(=O)c1ccc2c(=O)nc3c(-c4ccccc4)n[nH]n3c2c1 | 92.4
Cc1ccc(Cn2nnc3c(=O)n(Cc4cc(C)ccc4C)cnc32)cc1 | 91.1
COCCn1c(SCC(=O)NCc2ccc3c(c2)OCO3)nnc1-c1c[nH]c2ccccc12 | 92.0
C=CC(=O)Nc1ccc(Br)cc1 | 93.9
O=Nc1c(-c2c(O)[nH]c3ccc(I)cc23)[nH]c2ccccc12 | 98.7
CCCNC(=O)c1ccccc1NS(=O)(=O)Cc1ccccc1 | 109.7
COC(=O)C1C(c2ccccc2)C(C(=O)O)C1c1ccccc1 (configuration not stated) | 90.7
COc1ccc(-c2cccc(NC(=O)c3ccccc3)c2)nn1 | 99.3
CC(C)(C)NC(=O)c1ccccc1C(=O)NC(C)(C)C | 97.2
Nc1ccn([C@@H]2O[C@H](CO)[C@@H](O)[C@@H]2O)c(=O)n1 | 94.0
O=c1oc2c3ccccc3c3oc(=O)sc3c2s1 | 93.8
COc1cc(C=C(C#N)C#N)cc2c1OCO2 | 96.1
CNC(=O)c1ccc(C(=O)N(C(C)C)C(C)C)cc1 | 104.7
Cc1cc(C(=O)O/N=C(\N)c2ccc(C(C)(C)C)cc2)no1 | 102.0
NCCc1c[nH]c2ccc(O)cc12 | 91.0
C#CCN(C)C(C)Cc1ccccc1 (configuration not stated) | 97.2
C=CCN(CC=C)C(=O)c1ccccc1F | 98.2
CN(Cc1ccccc1)C1(O)C(=O)Nc2c(C(F)(F)F)cccc21 (configuration not stated) | 98.0
c1ccc(Cn2c3ccccc3c3nnc(SCc4ccc5nonc5c4)nc32)cc1 | 89.0
COc1ccc2c(c1)OCC1=C2CCC2(C)C(=O)CC=C12 (configuration not stated) | 103.1
COc1cc(C(=O)NC(C(C)C)C(C)C)cc(OC)c1OC | 99.8
CCNS(=O)(=O)c1ccc(CCC(=O)NCc2ccco2)cc1 | 96.5
C=CCOc1ccc(NC(=O)c2cccs2)cc1 | 97.6
CCn1c(-c2ccc(OC)cc2)csc1=Nc1ccc(NC(C)=O)cc1 | 100.2
O=C(NCCc1ccccc1)N1CCn2cccc2C1c1ccccc1 (configuration not stated) | 94.8
CC(C)=NNc1nc2ccccc2[nH]1 | 91.4
O=C(O)COc1ccccc1S(=O)(=O)C(F)F | 95.1
O=C1C(C=Nc2ccccc2)=C(O)c2ccccc21 | 92.2
Cc1cc(C(=O)Nc2sc(C)c(C)c2C#N)cs1 | 94.5
Nc1ncnc2c1ncn2[C@@H]1O[C@H](COP(=O)(O)CP(=O)(O)OP(=O)(O)O)[C@H](O)C1O (some centres not stated) | 100.0
Cc1ccc(-n2ncc3c(=O)n(CC(=O)NC4CCCCC4)cnc32)c(C)c1 | 101.0
CCOC(=O)c1sc2ccccc2c1Cl | 100.2
O=C(Nc1cccc(Cl)c1)C1CCN(c2ccc(C(F)(F)F)cn2)CC1 | 93.4
CCOC(=O)Cn1nc(NC(=O)COc2ccc(F)cc2)cc1C | 97.6
CCOC(=O)c1cc2c(c(CSc3nc4ccccc4c(=O)n3CCN3CCOCC3)c1)OCOC2 | 93.5
CCC1CCCCN1C(=O)c1cc2ncc(Br)cn2n1 (configuration not stated) | 91.3
CCN1C(=O)CC(Sc2ccccc2N)C1=O (configuration not stated) | 103.2
COc1ccc2c(c1)C(=O)CC(c1ccc(OC)c(OC)c1)O2 (configuration not stated) | 95.4
C#CCn1c(=NC(=O)C2COc3ccccc3O2)sc2cccc(OC)c21 (configuration not stated) | 91.1
COCC(=O)Nc1cccc(NC(C)=O)c1 | 97.4
CCOc1ccc2ccccc2c1/C=C(\C#N)C(=O)NCc1ccco1 | 91.8
NNc1ncc(Cl)cc1C(F)(F)F | 97.1
COc1ccccc1C1C(C(=O)c2sc(C)nc2C)=C(O)C(=O)N1CCCN1CCOCC1 (configuration not stated) | 112.0
CC1(C)CC(=O)C=C(NC(=O)Nc2ccc(Cl)cc2)C1 | 94.8
C[C@@H]1C[C@H]2[C@@H]3CCC4=CC(=O)C=C[C@]4(C)[C@@]3(F)[C@@H](O)C[C@]2(C)[C@@]1(O)C(=O)CO | 100.0&98.6
COc1ccc(-c2nocc2C#N)cc1 | 94.2
Cc1nnc(SCC(=O)N2CCCC2)n(N)c1=O | 103.5
Nc1nc(SCC(=O)N2CCc3ccccc32)n[nH]1 | 99.4
NC(=O)C(CNS(=O)(=O)c1ccc(Cl)cc1)Sc1ncccn1 (configuration not stated) | 106.4

Given with each value named: part of the list above
> CC(C)(C)c1o[nH]c(=O)c1CC(N)C(=O)O (configuration not stated)
  RVFV N-RNA inh = 98.9
> CCCNC(=O)NCc1n[nH]c(=O)c2ccccc12
  RVFV N-RNA inh = 97.6
> O=C(C1COc2ccccc2O1)N1CCN(c2ccccc2)CC1 (configuration not stated)
  RVFV N-RNA inh = 96.6
> CC(=O)Nc1cc(C(N)=O)cc(C(N)=O)c1
  RVFV N-RNA inh = 86.6

The results go on:
Structure | RVFV N-RNA inh
CC(=C/c1ccccc1)/C=N/n1c(C)n[nH]c1=S | 86.7
COC(=O)C1C(=O)NCC1c1ccc(OC)cc1 (configuration not stated) | 91.1
C#CCOC(=O)Nc1cnc(OC)c(C(F)(F)F)c1 | 97.5
O=C(O)c1cccc(N2C(=O)/C(=C\C=C\c3ccco3)SC2=S)c1 | 91.8
Cc1ccc(-c2nn(CCC(=O)NCCN3CCOCC3)c(=O)c3ccccc23)cc1 | 96.7
Cc1ccc(C=Nc2ccc(C(N)=O)cc2)o1 | 99.2
C[C@@H]1CCC[C@H](C)N1NC(=O)c1ccc(Cl)c(S(N)(=O)=O)c1 | 95.2
O=c1c(O[C@@H]2O[C@H](CO)[C@H](O)[C@H](O)[C@H]2O)c(-c2ccc(O)c(O)c2)oc2cc(O)cc(O)c12 | 94.2
C=CCSc1nnc2c(n1)OC(c1cccnc1)Nc1ccccc1-2 (configuration not stated) | 90.9
N#Cc1c(/N=C/c2c[nH]c3ccccc23)oc(-c2ccccc2)c1-c1ccccc1 | 94.7
C#C[C@]1(O)CC[C@H]2[C@@H]3[C@H](C)CC4=C(CCC(=O)C4)[C@H]3CC[C@@]21C | 99.5&104.2
O=c1cc(-c2ccc(-c3ccccc3)cc2)[nH][nH]1 | 94.5
Cc1cccc(C)c1OCC(=O)NCc1nnc(SCC(=O)NC2CCCCC2C)n1C (configuration not stated) | 103.7
Cc1ccc(C2CC(c3cc(Br)ccc3O)=NN2)cc1 (configuration not stated) | 99.7
O=C(NCCN1Cc2ccccc2C1=O)c1ccc(Cl)cc1 | 101.0
CC(C)NCC(O)c1ccc(N)c(C#N)c1 (configuration not stated) | 92.7
CCC(C(=O)N1CCN(S(C)(=O)=O)CC1)c1ccccc1 (configuration not stated) | 99.6
O=C(NCCSCc1ccc2nonc2c1)c1ccc(Cl)cc1Cl | 90.8
CC(NC(=O)Nc1ccc(F)cc1F)C1CCCO1 (configuration not stated) | 95.4
COc1ccccc1N1CCN(C(=S)Nc2ccc(S(=O)(=O)N3CCOCC3)cc2)CC1 | 100.0
CC1(C)SC2C(NC(=O)Cc3ccccc3)C(=O)N2C1C(=O)O (configuration not stated) | 107.7
CNc1nc(N)c(C(=O)C(C)(C)C)s1 | 94.5
O=C1c2ccccc2C(=O)c2sccc21 | 93.0
Cc1cc(C)n(CNc2ccc(I)cc2)n1 | 90.5
CC1(C)CC(=O)c2cc(C#N)c(SCC(N)=O)nc2C1 | 96.5
CCN1C(=O)/C(=C/c2c(C)c(C#N)c(=O)n(C)c2N2CCN(c3ccc(F)cc3)CC2)SC1=S | 99.5

Assay outcomes deposited in PubChem by ICCB-Longwood Screening Facility, Harvard Medical School.
